Rango-impB inh: qHTS Assay for Inhibitors of Rango (Ran-regulated importin-beta cargo) - Importin beta complex formation; actives 0.031% (n = 340,000); Potency, µM (titrated, usually from 92.2 µM), inactives show at the highest dose inhibition of complex formation; Rango CFP/YFP FRET sensor + importin beta, 45 min; active = rising FRET ratio curve, often small or poorly fitted; inconclusive = mostly compound fluorescence or quenching in the first reads; inactive = flat curves in all reads;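 further: potency means the concentration at half of the fitted maximal effect; 0% = DMSO wells and 100% = buffer wells lacking importin beta; nearly all actives have a fitted effect of over 15% in size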
Target sequence (Q14974 whole entry, looked up): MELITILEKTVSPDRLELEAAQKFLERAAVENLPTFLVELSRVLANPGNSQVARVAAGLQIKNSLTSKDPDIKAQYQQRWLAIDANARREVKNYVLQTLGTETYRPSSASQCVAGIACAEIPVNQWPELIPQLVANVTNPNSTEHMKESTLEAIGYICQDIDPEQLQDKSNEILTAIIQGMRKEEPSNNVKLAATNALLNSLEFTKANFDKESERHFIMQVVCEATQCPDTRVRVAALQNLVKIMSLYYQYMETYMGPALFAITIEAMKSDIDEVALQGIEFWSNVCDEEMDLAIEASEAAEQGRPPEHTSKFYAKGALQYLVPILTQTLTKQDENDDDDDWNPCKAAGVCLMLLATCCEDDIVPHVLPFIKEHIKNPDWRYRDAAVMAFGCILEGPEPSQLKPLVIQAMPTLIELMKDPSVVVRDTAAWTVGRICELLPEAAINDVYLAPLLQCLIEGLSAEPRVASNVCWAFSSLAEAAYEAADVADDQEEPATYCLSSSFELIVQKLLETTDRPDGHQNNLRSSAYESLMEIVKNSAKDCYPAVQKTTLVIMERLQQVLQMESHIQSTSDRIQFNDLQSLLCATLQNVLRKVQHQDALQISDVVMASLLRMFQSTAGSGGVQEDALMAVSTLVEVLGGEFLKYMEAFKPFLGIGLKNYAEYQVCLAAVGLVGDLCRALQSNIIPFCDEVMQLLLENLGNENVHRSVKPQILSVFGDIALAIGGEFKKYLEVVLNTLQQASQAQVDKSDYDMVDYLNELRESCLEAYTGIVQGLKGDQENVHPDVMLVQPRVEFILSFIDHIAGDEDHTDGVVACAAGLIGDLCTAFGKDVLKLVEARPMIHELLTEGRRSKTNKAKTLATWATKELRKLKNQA
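Inhibition scored from the CFP 486 nm/YFP 530 nm FRET ratio 45 min after adding 0.125 microM importin beta to 50 nM Rango biosensor preincubated 5 min with compound (room temperature, PBS with DTT, Tween-20, BSA). No-importin wells as positive control.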
GLA inh pH 4.5: qHTS Assay for Inhibitors of Human alpha-Galactosidase at pH 4.5; 230,000 tested, under 10 active; Alpha-galactosidase A (Homo sapiens), P06280; purified enzyme, 4-MU-alpha-Gal fluorescence, pH 4.5; activity change, negative = inhibition, % at 105 µM; inconclusive = small, poorly fitted or top-dose-only inhibition, or a rising curve; inactive = flat fitted curve, though single readings scatter; no compound was filed as active;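 further: 0% = full activity with enzyme and -100% = basal without enzyme; dose as in the result columns while the protocol names 77 µM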
Rango release inh: qHTS Assay for Inhibitors of RanGTP induced Rango (Ran-regulated importin-beta cargo) - Importin beta complex dissociation; Snurportin-1 (Homo sapiens) + GTP-binding nuclear protein Ran (Homo sapiens) + Importin …; actives 0.071% (n = 340,000); Biochemical FRET Rango-importin beta, RanGTP-induced dissociation; AID 540253, 2011; Potency, µM (top dose mostly 46.1 µM), without a hit: at the top dose activity change, negative = inhibition; active means falling FRET ratio curve, often poorly fitted, with flat reads before Ran was added; inconclusive means other falling curves, or compound fluorescence or quenching; inactive means flat or rising ratio curve;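 further: potency means the concentration at half of the fitted maximal effect; % of control where 0% means no effect; nearly all actives have a fitted effect of over 45% in size; -100% = wells without RanGTP and RCC1; the record marks most hits as doubtful in a second field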
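Two FRET readings bracket the reaction: one 5 min after compound meets Rango–importin beta, another 45 min after RanGTP-RCC1 (0.6 uM Ran, 0.2 uM RCC1, 2 mM GTP) is added. Only the second defines inhibition.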
miR-21 reporter: qHTS Assay for Modulators of miRNAs and/orActivators of miR-21. HeLa miR-21 FLuc reporter, luciferase, 48 h. Potency, µM (series often up to 38.3 µM), for inactives: at the top dose reporter change, positive = more light. 340,000 tested, under 10 active; active = well fitted rising curve with a large enough effect; inconclusive = small, poorly fitted or top-dose-only effect; inactive = no such curve, though single readings can be large or run the other way;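 further: % of control where 0% means no effect; miR-21 action dims this reporter so a rising signal means less miR-21 action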
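HeLa miR-21-FLuc reporter line, endogenous miR-21; 2000 cells/well in DMEM/10% FBS; compound titration up to ~40uM final, 48 h, 37 degree Celsius; luciferase detection reagent, 15 min lysis, CCD luminescence.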
* = called active by the depositor; ? = inconclusive; . = not tested or not shown; [ ] = remark or other dose. Not all compounds are listed; the hit share may differ from the screen's.

Rango-impB inh	GLA inh pH 4.5	molecule	Rango release inh	miR-21 reporter
3.4%	-2	Cc1cc(C(=O)CSc2nc3ccccc3n2C)c(C)n1C	0%	-22%
-0.8%	.	CCOC(=O)c1ccccc1NC(=O)COC(=O)CCNS(=O)(=O)c1cccs1	0%	.
?	3	CCOC(=O)c1cc2sc(C)cc2n1CC(=O)Nc1ccc2c(c1)OCCO2	0%	-12%
2.4%	6	COc1ccc(C2C(C(C)=O)=C(O)C(=O)N2C)c(OC)c1 (configuration not stated)	1%	-12%
5.4%	.	Cc1ccccc1OCC(=O)N1CCC2(CC1)CC(=O)c1ccccc1O2	-2%	.
-2.7%	-15	O=C(/C=C/c1ccc(F)cc1)Nc1cc(S(=O)(=O)N2CCOCC2)ccc1N1CCCC1	-12%	-13%
.	0	CC(C)COc1ncnc2c1sc1nc3c(cc12)COC(C)(C)C3	.	-33%
-4.4%	.	O=C(COc1ccc(Cl)cc1)Nc1ccc(NC(=O)c2ccco2)cc1	7%	-15%
-2.7%	.	CCC1(C)Cc2ccccc2-c2[nH]c(=S)[nH]c(=O)c21 (configuration not stated)	0%	-19%
-3.9%	.	COc1ccccc1NC(=O)CCn1c(=S)oc2ccccc21	3%	-7%
-5.2%	-4	C/C(Cl)=C\COc1cc(C)nc2c(Br)cccc12	2%	-12%
4.5%	4	O=C(O)c1ccccc1C(=O)c1ccc(N2CCCC2)c([N+](=O)[O-])c1	20%	-18%
1.4%	-8	O=C(CSc1nc2c(cnn2-c2ccc(F)cc2)c(=O)[nH]1)Nc1nccs1	3%	-1%
-0.3%	.	Cc1cc(C)n2nc(C(=O)N(C)c3c(N)n(Cc4ccccc4)c(=O)[nH]c3=O)nc2n1	-12%	.
6.0%	.	Cc1ccc(CNC(=O)[C@H](Cc2ccccc2)NC(=O)c2ccco2)cc1	32%	.
-1.1%	2	COc1ccc(C2=NOC(C(=O)Nc3cccnc3Cl)C2)cc1 (configuration not stated)	-25%	-10%
-3.6%	2	COC(=O)c1ccc(CSc2nc3ccccc3c(=O)n2Cc2ccco2)o1	5%	3%
-3.5%	.	Cc1cc(C(=O)OCC(=O)Nc2c(Cl)cccc2C(F)(F)F)c(C)o1	6%	.
0.2%	.	Cc1ccc(C(=O)N2CCN(c3ccc(C(F)(F)F)cn3)CC2)o1	8%	.
3.3%	.	COc1cc(NC(=O)c2ccccc2)c(OC)cc1NC(=O)CN1C(=O)NC2(CCCCC2C)C1=O (configuration not stated)	4%	.
4.3%	.	Cc1ccsc1C(=O)N[C@@H](C)c1nnc2ccccn12	-17%	1%
-4.3%	-3	Cc1ccc(C2C3=C(NCCN=C3c3ccccc3)C(=O)N2c2ccccc2)cc1 (configuration not stated)	4%	13%
-1.3%	.	COc1ccc(C(C)C)cc1S(=O)(=O)N1CCC(C(=O)NCc2cccnc2)CC1	-9%	0%
3.6%	-20	O=C(COC(=O)c1ccc(S(=O)(=O)Nc2ccccc2)cc1)NCc1ccco1	-4%	-2%
1.4%	2	O=C(NCc1ccccc1Cl)c1ccc(Cn2cc(C(F)(F)F)ccc2=O)cc1	-9%	-4%
3.8%	2	O=C1N(c2ccccc2)C[C@@H]2C[C@@H](c3cccs3)N3CCC[C@@]123	-8%	30%
2.8%	-3	CCN(CC)c1ccc(NC(=O)COC(=O)c2cccs2)cc1	-2%	2%
0.3%	3	CCOC(=O)c1cnc(SC2CCc3ccccc3C2=O)nc1N (configuration not stated)	3%	-40%
-1.2%	-1	Cc1cc(OCCOCCNC(C)C)cc(C)c1Cl	-1%	-8%
-1.3%	-14	O=S(=O)(NCc1ccccc1)c1ccc(F)cc1Br	0%	-2%

(list continues)
Rango-impB inh	GLA inh pH 4.5	molecule	Rango release inh	miR-21 reporter
-3.5%	-6	COc1ccccc1/C=N\Nc1cc(C)nc(-n2nc(C)cc2C)n1	1%	3%
0.7%	2	O=C(NCc1ccccc1)c1cccc(COc2ccccc2Cl)c1	0%	-50%
-0.8%	-17	O=C(Nc1ccc(Cl)c(S(=O)(=O)N2CCOCC2)c1)c1ccc(OCC2CCCO2)cc1 (configuration not stated)	10%	?
1.5%	-1	CCn1c(NC(=O)C(C)C)c2ccccc2nc1=O	-13%	-1%
2.9%	.	Cc1cccc(C)c1NC(=O)c1ccc2c(c1)CCN2S(C)(=O)=O	-10%	-2%
-1.0%	6[21.1 µM]	Cc1ccc(NC(=O)Cn2c3ccc(F)cc3c3nc4n(c(=O)c32)CCS4)cc1F	-15%	-4%
0.0%	.	CC(C)CN(C(=O)CC(C)c1ccccc1)c1c(N)n(Cc2ccccc2)c(=O)[nH]c1=O (configuration not stated)	-14%	.
-0.2%	.	Cc1ccc2c(c1)N(CC(=O)NCC1CCCO1)C(=O)C(C(C)C)O2 (configuration not stated)	1%	-6%
-2.4%	-6	COc1ccc(/C=N/NC(=O)c2cccc(NC(=O)c3ccccc3)c2)c(C(=O)O)c1OC	1%	-27%
4.4%	-4	S=c1[nH]c(-c2ccccc2)cn1/N=C/c1ccncc1	-3%	-14%
-0.4%	-8	CCCn1c(=O)c(C(=O)NCc2ccc(OC)c(OC)c2)c(O)c2ccccc21	6%	-4%
-7.0%	-13	Cc1cnc(N2C(=O)c3ccc([N+](=O)[O-])cc3C2=O)s1	11%	-1%
-0.2%	.	O=C(Cc1ccc(NS(=O)(=O)c2ccc(F)cc2)cc1)NCc1cccnc1	-10%	0%
-0.3%	.	CCCCn1c(SCC(=O)Nc2cc(C)on2)nc2cc(S(N)(=O)=O)ccc21	-2%	.
0.3%	.	COc1cc(NC(=O)COc2ccccc2[N+](=O)[O-])ccc1NC(=O)c1ccco1	22%	-5%
-1.2%	-7	Cn1c(-c2ccccc2[N+](=O)[O-])[n+](C)c2ccccc21	-2%	10%
4.1%	.	CCOc1ccc(S(=O)(=O)NC(C)C(=O)NCc2ccccn2)cc1 (configuration not stated)	-10%	0%
-0.5%	.	O=C(N[C@@H]1CCC(=O)N(CC[C@H](Sc2ccc(Br)cc2)c2ccccc2)CC1)OCc1ccccc1	3%	.
-0.7%	-9	CCN(CC)S(=O)(=O)c1ccc(NCc2ccccc2)nc1	-8%	-2%
-0.2%	3	CC1Cc2nc(SCC(N)=O)n(Cc3ccccc3)c(=O)c2S1 (configuration not stated)	3%	-2%
4.1%	1	Cn1c(SCc2ccc(C(=O)Nc3nccs3)cc2)nnc1-c1ccccc1	-12%	-3%
1.0%	-1	Cc1cccc(N2CCN(C(=O)CCN3C(=S)NC(C)(C)CC3C)CC2)c1C (configuration not stated)	-8%	5%
2.3%	.	C#CCOCCOCCOCCNc1nc(N2CCN(C(=O)CCCCCCCCCCNC(=O)Cn3cc(CCCCCN)nn3)CC2)nc(N2CCN(C(=O)CCCCCCCCCCNC(=O)[C@H](CO)n3cc(CCCCCN)nn3)CC2)n1	1%	.
2.3%	-2	CCOC(=O)c1cnc(-n2nc(C)cc2C)nc1Nc1ccc(OC)cc1	0%	-7%
2.8%	7	CC(=O)OCCn1c(Br)nc2c1c(=O)[nH]c(=O)n2C	-4%	-1%
-0.1%	6	CCCCc1n[nH]c(=S)n1Cc1ccccc1	-8%	2%
1.8%	.	Cc1ccc(S(=O)(=O)N2CCCCC2)cc1C(=O)NCc1ccc(S(N)(=O)=O)cc1	-10%	.
0.8%	5	Cc1ccccc1-c1nc(CN(Cc2c(C)nn(C)c2C)C2CC2)c(C)o1	8%	15%
-0.3%	5	O=C1CCCN1CCCN=c1c([N+](=O)[O-])nn(-c2ccc(Cl)cc2)n1O	-7%	-14%
-1.6%	-9	Clc1ccccc1OCc1nc(-c2ccc(Br)o2)no1	-8%	-60%

Next results follow.
Rango-impB inh	GLA inh pH 4.5	molecule	Rango release inh	miR-21 reporter
3.0%	4	COc1ccc(O)c(/C=N/NC(=O)CSc2nnc(C)n2-c2ccccc2)c1	4%	18%
1.8%	-6	O=S1(=O)CCN(Cc2ccccc2C(F)(F)F)CC1	5%	3%
3.7%	.	CC(=O)NC(c1cccc([N+](=O)[O-])c1)c1c(OC(C)=O)ccc2ccccc12 (configuration not stated)	-3%	.
-2.4%	-1	COc1ccc(Br)cc1/C=N/NC(=O)C(c1ccncc1)N1CCOCC1 (configuration not stated)	-4%	3%
-0.5%	5	C=C(C)CNC(=S)N/N=C(\C)c1ccc(-n2ccnc2)cc1	1%	-2%
-1.0%	-5	CCS(=O)(=O)n1nc(-c2ccccc2)nc1SC	11%	-31%
0.6%	.	c1ccc(COc2ncnc3c2ncn3CCCN2CCN(c3ccccn3)CC2)cc1	17%	.
?	.	CN1CCN(CC(O)COC(c2ccc(Cl)cc2)c2ccc(Cl)cc2)CC1 (configuration not stated)	-7%	9%
0.5%	1	O=C(Nc1ccccc1-c1ccccc1)c1cccc(C(F)(F)F)c1	-15%	-3%
-0.4%	-9	Cc1ccc(S(=O)(=O)N(CC(=O)NCCSC2CCCCC2)c2ccccc2F)cc1	0%	-2%
-1.1%	9	O=C(CSc1n[nH]c(=O)[nH]c1=O)c1cccc([N+](=O)[O-])c1	13%	8%
-0.2%	-7	Cc1ccc(S(=O)(=O)N2CCN(CC(=O)Nc3ccc([N+](=O)[O-])cc3)CC2)cc1C	2%	-5%
?	-1	Cc1ccc2cc(/C=N/Nc3ccc(C(=O)O)cc3)c(Cl)nc2c1	?	-86%
-0.3%	.	C[C@H](CO)N1C[C@H](C)[C@@H](CN(C)Cc2ccncc2)Oc2c(NC(=O)c3ccncc3)cccc2C1=O	0%	.
2.2%	.	O=C(c1ccc(Cn2cnnn2)cc1)N1CCCC(Nc2ccc(F)cc2)C1 (configuration not stated)	-19%	3%
0.1%	.	CCOC(=O)c1cn(C2CC2)c2c(F)c(NCCCN(C)C)c(F)cc2c1=O	16%	.
0.2%	-3	CCCCCSc1nc(N2CCOCC2)c2c(c1C#N)CC(C)(C)OC2	27%	-3%
-11%	5	Cn1c(C2CC(=O)N(Cc3ccccc3)C2)nc2ccccc21 (configuration not stated)	12%	-1%
-1.9%	-2	CC(=O)c1cn(CC(=O)Nc2c(C)cccc2C)c2ccccc12	?	15%
1.2%	.	C=CCN(CC=C)C(=O)c1ccc2nc(Cc3ccc(OC)c(OC)c3)oc2c1	-13%	5%
-2.6%	-2	Cc1ccc(-n2nnc3c(=O)n(CC(=O)N4CCC(C)CC4)cnc32)cc1	38%	-10%
0.7%	2	COc1ccc(CCN(C(=O)c2cccc(F)c2)C2CC(=O)N(c3ccc(OC)cc3)C2=O)cc1 (configuration not stated)	16%	-3%
-0.8%	6	CCCC(C)c1nnc(NC(=O)C(=O)OCC)s1 (configuration not stated)	0%	-2%
-1.7%	.	CCOc1ccc(C2/C(=C(/O)c3ccc4c(c3)CC(C)O4)C(=O)C(=O)N2CCCn2ccnc2)cc1 (configuration not stated)	-3%	0%
-0.7%	.	Cc1cc(C)cc(OCC(=O)N2CCc3ccccc3C2)c1	-8%	-12%

6 compounds already listed, sorted by formula weight, descending:
Rango-impB inh	GLA inh pH 4.5	molecule	Rango release inh	miR-21 reporter
-0.4%	-9	Cc1ccc(S(=O)(=O)N(CC(=O)NCCSC2CCCCC2)c2ccccc2F)cc1	0%	-2%
1.2%	.	C=CCN(CC=C)C(=O)c1ccc2nc(Cc3ccc(OC)c(OC)c3)oc2c1	-13%	5%
2.2%	.	O=C(c1ccc(Cn2cnnn2)cc1)N1CCCC(Nc2ccc(F)cc2)C1 (configuration not stated)	-19%	3%
0.5%	1	O=C(Nc1ccccc1-c1ccccc1)c1cccc(C(F)(F)F)c1	-15%	-3%
-1.9%	-2	CC(=O)c1cn(CC(=O)Nc2c(C)cccc2C)c2ccccc12	?	15%
-0.8%	6	CCCC(C)c1nnc(NC(=O)C(=O)OCC)s1 (configuration not stated)	0%	-2%
